Menin MLL FP FL – inhibitors of human menin-MLL interaction, wild-type MLL peptide. Fluorescence polarization, fluorescein-MLL peptide displacement from menin. FP activity change, % at 61.4 µM. 290,000 tested, under 10 active. AID 1766; inconclusive = falling polarisation curve, or a change in total fluorescence; inactive = total fluorescence flat and polarisation flat or rising; no compound was filed as active; the % refers to the polarisation; negative = inhibition;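 further: % of control where 0% means no effect; inhibitors lower the polarisation; unlabelled MLL peptide was the positive control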
Sfp PPTase inh – inhibitors of Bacillus subtilis Sfp phosphopantetheinyl transferase; Q9F4F7; Biochemical Sfp PPTase activity, qHTS; Potency, µM, inactives show max response, negative = inhibition, actives largely listed as inhibitors; 310,000 compounds, 3.5% hits; AID 1490; active means well fitted inhibition curve with a large enough effect; inconclusive means small, poorly fitted or top-dose-only effect, or another doubt; inactive means no such curve, though single readings can be large or run the other way;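 further: the enzyme is Sfp with the accession as filed and its product quenches rhodamine fluorescence; potency means the concentration at half of the fitted maximal effect; 0% = enzyme reaction without inhibitor and -100% = no enzyme wells; top concentration of the series not given in the record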
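Buffer: 50 mM Hepes-Na pH 7.6, 10 mM MgCl2, 0.01% Nonidet P-40, 0.01% BSA. Enzyme 15 nM, pre-exposed to compound 15 min; substrates then added and fluorescence change tracked over 30 min.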
gsp antagonist – antagonizes gsp, the McCune-Albright syndrome mutation | gsp-mutant cells, cAMP HTRF, 30 min; control for the full effect not named in the record | Potency, µM (top dose mostly 76.9 µM), for inactives: at the highest dose activity change, negative = inhibition, usual class: inhibitors | 340,000 compounds, 0.4% hits; active = falling curve of any shape with a large fitted effect; inconclusive = falling curve, mostly with a smaller effect; inactive = flat or rising curve; cell line not stated here;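 further: intracellular cAMP measured with PDE inhibitor Ro 20-1724 present during compound exposure; potency means the concentration at half of the fitted maximal effect; on the % scale 0 is the no-effect control and ±100 the full control effect; nearly all actives have a fitted effect of over 65% in size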
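G418-selected cells were plated in DMEM/10% FBS for 16-24 h at 37C, then treated with compounds plus the PDE inhibitor […] (300 uM solution added) for 30 min at 37C. Intracellular cAMP was measured by HTRF after 30 min lysis at room temperature.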
TRPV1 potentiator – potentiators of human vanilloid receptor 1 (TRPV1). Q8NER1. TRPV1-expressing cells, Fluo-8 calcium influx, capsaicin EC20 potentiation; host cell line not named in the record; control for the full effect not named in the record. potentiation, % at 8.33 µM. 320,000 compounds, 0.02% hits. AID 540277; active means potentiation above 80%; inconclusive means 30% to 80%; inactive means below 30%; further: 0% is about no effect
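Cells expressing TRPV1 were dye-loaded with Fluo-8 and read kinetically: 10 s baseline, 3 min after compound (agonist portion), then 2 min after EC20 capsaicin (allosteric enhancer portion). Calcium-bound dye fluorescence at 480/520 nm.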
gsp ag – agonists of gsp mutant (McCune-Albright syndrome); gsp mutant cells, cAMP HTRF, 30 min; control for the full effect not named in the record; Potency, µM (top dose mostly 76.9 µM), inactives show at the highest dose activation (cAMP increase), usual class: activators; 340,000 compounds, 0.13% hits; active = well fitted activation curve with a large enough effect; inconclusive = small, poorly fitted or top-dose-only effect, or another doubt; inactive = no such curve, though single readings can be large or run the other way; cell line not stated here;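 further: phosphodiesterase inhibitor Ro 20-1724 added with compounds to block cAMP breakdown; potency means the concentration at half of the fitted maximal effect; nearly all actives have a fitted effect of over 60% in size; about a fifth of the inactives were tested at one dose only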
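Cells in DMEM/10% FBS with G418 were pretreated with compounds in DMSO plus […] (300 uM stock) for 30 min at 37C. cAMP was measured by HTRF (cAMP-d2 plus anti-cAMP antibody-K) after 30 min at room temperature.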
ClpP mod – qHTS Assay for Activators of ClpP; ATP-dependent Clp protease proteolytic subunit (Bacillus subtilis (strain 168)), P80244; purified B. subtilis ClpP, FRET peptide cleavage, 20 min; Potency, µM (series often up to 57.5 µM), inactives show at the highest dose activity change, negative = active; 340,000 compounds, 1.9% hits; AID 651965, 2013; active = well fitted falling curve with a large enough effect; inconclusive = small, poorly fitted or top-dose-only effect; inactive = no such curve, though single readings can be large or run the other way; further: potency means the concentration at half of the fitted maximal effect; the source files actives as falling curves though it sought activators and does not explain the sign; nearly all actives have a fitted effect of over 65% in size; many hits overshoot -100%
Target sequence (P80244 whole entry, looked up): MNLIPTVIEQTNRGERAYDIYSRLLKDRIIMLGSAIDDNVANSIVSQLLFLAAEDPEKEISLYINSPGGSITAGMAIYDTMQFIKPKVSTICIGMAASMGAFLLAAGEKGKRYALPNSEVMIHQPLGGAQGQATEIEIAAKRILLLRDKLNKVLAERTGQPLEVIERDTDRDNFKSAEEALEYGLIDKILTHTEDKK
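FRET quenching reversal measured ClpP activation: 10 microg/mL B. subtilis ClpP at pH 8 with the FRET-FV decapeptide, read at 430 nm after 320 nm excitation. The 20-min minus 0-min signal was scaled between DMSO/no-enzyme wells and ADEP (5.8 microM final).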
D2 potentiator – positive allosteric modulators of human D2 dopamine receptor; P14416; DiscoveRx D2 beta-arrestin cells, luminescence, 90 min; 100% = 57 uM dopamine signal; potentiation, % (concentration not given with the values); 360,000 compounds, 0.23% hits; active = potentiation of 50% or more; inconclusive = 30% to 50%; inactive = 30% or less;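 further: tested on top of an EC20 dose of dopamine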
Target sequence (P14416 whole entry, looked up): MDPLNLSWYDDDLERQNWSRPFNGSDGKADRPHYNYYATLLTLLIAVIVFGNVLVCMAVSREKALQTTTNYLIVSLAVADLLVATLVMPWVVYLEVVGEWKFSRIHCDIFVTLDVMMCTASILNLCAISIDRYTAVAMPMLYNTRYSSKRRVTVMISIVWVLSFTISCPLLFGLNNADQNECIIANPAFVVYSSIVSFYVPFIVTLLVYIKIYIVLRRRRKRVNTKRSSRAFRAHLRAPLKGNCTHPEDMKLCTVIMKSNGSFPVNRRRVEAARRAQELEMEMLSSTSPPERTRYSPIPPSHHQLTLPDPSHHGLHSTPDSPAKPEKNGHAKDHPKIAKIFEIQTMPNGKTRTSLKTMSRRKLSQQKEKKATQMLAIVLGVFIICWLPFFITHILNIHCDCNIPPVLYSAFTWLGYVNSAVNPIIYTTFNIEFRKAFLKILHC
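PathHunter D2 cells, attached overnight at 37 deg C, received compound in DMSO plus dopamine at EC20 (50 nM final) for 90 min at 37 deg C. Beta-arrestin recruitment was read as luminescence after 1 h with detection reagent at ambient temperature.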
Active calls of the source: *; ? = inconclusive; · = no result given; & = joins results of further samples; ! = repeats disagree; [ ] = another dose, or the depositor's remark.

SMILES	Menin MLL FP FL	Sfp PPTase inh	gsp antagonist	TRPV1 potentiator	gsp ag	ClpP mod	D2 potentiator
O=C(O)C1CC=CCC1C(=O)N1CC=C(c2ccccc2)CC1 (stereo not given)	1.9	19%	-3%	7	2%[15.4 µM]	·	-15
N#Cc1ccccc1Cn1cc(/C=C/[N+](=O)[O-])c2ccccc21	0.7	-28%	-10%	8	7%[15.4 µM]	-1.0%	-6
CC(C)n1nc(C(=O)Nc2cccc(S(=O)(=O)N3CCCCC3)c2)c2ccccc2c1=O	·	·	?	-3	?	-14%	-1
Cc1ccc(/C=N/NC(=O)CNC(=O)c2cccs2)cc1	·	9%	-2%	-3	-9%	0.5%	-6
COc1ccc(C(=O)/C(=C\c2ccco2)N2C=CC=CC2=C(C#N)C#N)cc1	9.0	18µM*	18%	9	-4%[15.4 µM]	0.7%	-53
COc1cc(/C=N/NC(=O)c2cccc(S(=O)(=O)N3CCCC3)c2)ccc1O	·	·	2%	0	-8%[15.4 µM]	8.0%	-20
O=C(Nc1ccc2c(c1)OCCO2)C1CCN(S(=O)(=O)c2ccccc2)CC1	0.0	18%	-16%	-17	18%	·	-1
CCNC(=O)CC1C(=O)N(c2ccc(C)cc2)C(=O)N1CCC(C)C (stereo not given)	-0.8	-6%	2%	-8	1%[15.4 µM]	0.1%&-0.1%	-2
CCC/C=C/c1ccc(CN2C(CC(C)C)C(=O)N(Cc3cn(Cc4ccco4)nn3)CCS2(=O)=O)cc1 (stereo not given)	·	·	·	·	-13%	-1.0%	-1
O=C(O)CN1C(=O)C2(OCCCO2)c2ccccc21	-1.0	17%	3%	6	-3%	-4.2%	0
CCOC(=O)c1cnc(SCC(=O)c2ccccc2)nc1N	0.6	45µM*	-12%	-7	-23%	-0.1%	-5
CN(CC(=O)Nc1ccncc1)S(=O)(=O)c1ccc(Cl)cc1	1.5	7%	4%	-1	7%	0.7%	-1
CC1CCCN(Cc2c(O)ccc3c2O/C(=C\c2ccco2)C3=O)C1 (stereo not given)	?	35µM*	-24%	-1	-1%[15.4 µM]	2.0%	-8
COC/C=C/C1=CC2=CC(=O)C(C)(OC(=O)c3cnc4ccccc4n3)C(=O)C2=CN1c1ccc(CO)cc1 (stereo not given)	8.2	56µM*!	·	-7	·	·	·
O=C(NCc1ccc(Cl)cc1)C(=O)c1c[nH]c2ccccc12	3.9	1%	-5%	8	-61%[inhibitor]	3.7%	-2
CCOC(=O)N=S(=O)(Oc1ccc([N+](=O)[O-])cc1)c1ccccc1 (stereo not given)	1.0	9%	-22%	-9	-12%	-2.9%	3
COc1cc(COCC(O)CN2CCCCC2C)cc(OC)c1OC (stereo not given)	6.2	-2%	14%	3	-3%	1.7%	-9
CC(/C=C1\SC(=S)N(CC(=O)N2CCN(c3ccccc3)CC2)C1=O)=C\c1ccccc1	-0.6	20%	4%	9	1%	-2.6%	-6
O=C(Nc1ccc2ccccc2n1)c1ccccc1Cl	-4.2	-15%	6%	3	6%	-3.8%	-6
CCOc1ccc(C(=O)OC(C)C(=O)N2CCN(Cc3ccccc3)CC2)cc1 (stereo not given)	·	·	4%	·	-9%[15.4 µM]	-0.4%	-8
N#Cc1ccccc1Sc1ccccc1C(=O)N1CCOCC1	1.7	2%	9%	-18	0%	-0.7%	-6
COc1cc(NS(=O)(=O)c2ccc3[nH]c(=O)oc3c2)cc(OC)c1	-4.2	9%	-9%	1	-6%	·	-5
O=C(CN1C(=O)COc2ccccc21)NCC1CCCO1 (stereo not given)	·	-1%	6%	-5	4%	·	-5
COC(=O)c1ccc(C(=O)OC)c(NC(=S)N2CCN(c3ccccc3F)CC2)c1	2.2	-13%	-2%	-2	-4%[15.4 µM]	-4.4%	-11
CC1CCCCN1C(=O)C(=O)c1cn(CC(=O)N2CCCCCC2)c2ccccc12 (stereo not given)	·	-7%	-18%	-2	?	0.3%	-7
Cc1ccc(SC(C)C(=O)Nc2cccc(N(C)S(C)(=O)=O)c2)cc1 (stereo not given)	1.2	15%	-13%	-21	-23%	0.1%	-15
CCc1ccc(OCCCC(=O)Nc2nnc(C3CCCO3)s2)cc1 (stereo not given)	-1.3	-5%	-13%	-5	3%[15.4 µM]	-1.0%	3
CCOc1cccc(/C(O)=C2/C(=O)C(=O)N(Cc3ccco3)C2c2ccncc2)c1 (stereo not given)	3.6	-26%	-2%	-1	?	-4.2%	-1
CCCCN(Cc1cccs1)S(=O)(=O)c1csc(C(N)=O)c1	·	-1%	2%	9	27%	0.6%	1
COc1cc2c(Cc3ccccc3)cncc2cc1O	·	·	2%	·	-2%[15.4 µM]	-0.5%	-3
CN(c1ccccc1)S(=O)(=O)c1cccc(NC(=O)CSc2nnc(C3CC3)n2C)c1	·	·	-13%	-3	12%	-2.2%	-1
CN(C)N=C1c2cc(S(=O)(=O)N(C)C)ccc2-c2ccc(S(=O)(=O)N(C)C)cc21	·	-2%	6%	?	20%	1.8%	8
Cn1nnnc1NN=Cc1ccccc1	·	·	·	·	-35%	-0.3%	-5
CCOc1ccc2[nH]c(=O)c(=O)[nH]c2c1	-3.3	9%	14%	-19	4%	-4.0%	12
COC(=O)c1cc(C)nc(Sc2ccccc2NC(C)=O)n1	3.3	1%	-4%	?	-13%	-0.9%	-3
CN1C(=O)c2cccc3c(S(=O)(=O)Nc4ccccn4)ccc1c23	0.8	5%	-7%	4	-30%	2.0%	9
Nc1ccc(CCc2nc3ccccc3o2)cc1	1.1	0%	0%	-7	?	0.4%	-13
O=C1NC2(C=Cc3c(ccc4ccccc34)O2)Oc2ccccc21 (stereo not given)	?	8%	-2%	26	-10%	?	-7
COc1cccc(/C=C/C(=O)OCC(=O)Nc2cccc(S(=O)(=O)N3CCOCC3)c2)c1OC	-1.1	9%	·	3	0%[15.4 µM]	·	-13
CC(C)(C)c1ccc(OCCC(=O)Nc2ccc(N3CCOCC3)cc2N2CCOCC2)cc1	·	·	?	-17	2%[15.4 µM]	·	4
CC(=O)c1ccc(Sc2ccccc2)c([N+](=O)[O-])c1	3.7	-1%	2%	-22	-3%[15.4 µM]	·	-2
Cc1cc(C)c(S(=O)(=O)N2CCN(c3ccc([N+](=O)[O-])c(NCc4ccco4)c3)CC2)c(C)c1	3.1	15%	-1%	13	-4%	0.2%	-14
CCn1cc(CN2CCC(C(=O)Nc3cccc(-c4cccc(OC)c4)c3)CC2)cn1	1.8	3%	9%	5	-7%[15.4 µM]	-0.7%	-30
COCCCN(C(=O)c1ccccc1F)c1nc(-c2ccc(OC)cc2)cs1	1.4	5%	-26%	1	14%	-3.8%	-4
COc1cc2c(cc1OC(C)=O)CCCCC2=O	·	·	4%	·	10%	-4.0%	-11
CCN1CCCC1CNC(=O)c1ccc2c(c1)NC(=O)/C(=C\c1ccccc1F)S2 (stereo not given)	·	·	·	·	10%	-2.8%	-26
CCNC(=S)N/N=C(\C)c1ccc(N2CCOCC2)cc1	3.6	-2%	-8%	13	28%	·	-7
CCOc1ccc(-c2c(=O)n(OCc3ccccn3)c3ccccc3[n+]2[O-])cc1	2.2	?	?	-37	10%	-4.8%	-1
COc1c(Cl)cc(Cl)cc1CNCCO	0.7	18%	17%	9	3%[15.4 µM]	·	-5
O=C(COc1ccc(S(=O)(=O)NCc2ccccc2)cc1Cl)NCC1CCCO1 (stereo not given)	-0.3	-1%	-12%	7	-64%[inhibitor]	-2.2%	2
CCOc1cc(C(=O)OCC(=O)c2c[nH]c3ccccc23)ccc1OCC(=O)N1CCOCC1	3.5	11%	-27%	-16	0%	-1.9%	-5
CCOC(=O)C1(Cc2cccc(OC)c2)CCN(Cc2cccc(O)c2)CC1	-6.4	6%	·	1	26%[15.4 µM]	·	-17
CCCCn1nc(C(=O)N(CC)CC(=O)Nc2c(F)cccc2F)c2ccccc2c1=O	·	·	-6%	-2	-20%	0.3%	4
CSc1nc(NCCCO)c2c3c(sc2n1)CN(C)CC3	-6.7	-1%	-10%	24	?	4.3%	-4
O=C(c1cccnc1)N1CCc2ccccc2C1	-1.8	16%	-3%	-9	-11%	-5.1%	-6
Cc1nn(C2CCS(=O)(=O)C2)c(Cl)c1/C=C/C(=O)OCC(=O)Nc1ccc2c(c1)OCO2 (stereo not given)	0.7	12%	-6%	6	-8%	·	-2
Cc1coc2c(C)c3oc(=O)cc(-c4ccccc4)c3cc12	·	·	0%	·	11%	2.5%	-6
NC(=O)C1CCN(C(=O)CCNS(=O)(=O)c2ccccc2F)CC1	·	·	13%	-10	?	-1.9%	-1
Cc1ccc(C(=O)/C=C\Nc2ccc(C)c(C)c2)cc1	4.1	-13%	-1%	-6	-7%	-4.5%	25
O=C(CSc1cccc(C(F)(F)F)c1)Nc1cc(S(=O)(=O)N2CCCC2)ccc1Cl	3.7	-3%	5%	?	-14%	-2.8%	12
Next structures follow:
SMILES	Menin MLL FP FL	Sfp PPTase inh	gsp antagonist	TRPV1 potentiator	gsp ag	ClpP mod	D2 potentiator
O=C(NCCCCNC(=O)c1c(F)c(F)c(F)c(F)c1F)c1c(F)c(F)c(F)c(F)c1F	-1.2	-8%	-1%	0	-87%[inhibitor]	-1.3%	-4
COc1ccc2c(c1)-c1nc(/N=C/c3ccc(O)c(OC)c3)sc1CC2	4.4	?	3%	11	-29%	-14%	14
COc1ccc(-c2nn3c(COc4ccccc4)nnc3s2)cc1OC	1.9	?	15%	-6	7%	?	-12
CCOC(=O)c1ccc(OS(=O)(=O)c2ccccc2)c(OC)c1	-0.9	14%	-10%	-16	1%[15.4 µM]	1.0%	-2
Cc1nnc(SCC(=O)Nc2ccc3c(c2)OCO3)[nH]c1=O	4.9	-2%	11%	-24	-4%[15.4 µM]	·	0
CCS(=O)(=O)N1CCCC(C(=O)c2ccc(OC)cc2C)C1 (stereo not given)	1.3	2%	-22%	4	15%[15.4 µM]	1.2%	-6
Cc1csc(SCC(=O)c2c(N)n(CC(C)C)c(=O)n(C)c2=O)n1	-1.1	1%	?	2	20%	1.0%	-9
O=Cc1ccc(-n2cccn2)cc1	1.2	3%	4%	16	-6%	·	-1
